Compound activity: PubChem BioAssay, Vanderbilt University
GIRK2 activ = opens human GIRK2 potassium channels. P48051. HEK293-GIRK2 thallium flux, Thallos fluorescence. calls only for hits at 25 µM. hit rate 0.05% among 63,000. AID 1259325;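 active = among the strongest 0.2% of first-round signals and kept after retests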;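 also: first round at about 10 µM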
Target sequence (P48051 whole entry, looked up): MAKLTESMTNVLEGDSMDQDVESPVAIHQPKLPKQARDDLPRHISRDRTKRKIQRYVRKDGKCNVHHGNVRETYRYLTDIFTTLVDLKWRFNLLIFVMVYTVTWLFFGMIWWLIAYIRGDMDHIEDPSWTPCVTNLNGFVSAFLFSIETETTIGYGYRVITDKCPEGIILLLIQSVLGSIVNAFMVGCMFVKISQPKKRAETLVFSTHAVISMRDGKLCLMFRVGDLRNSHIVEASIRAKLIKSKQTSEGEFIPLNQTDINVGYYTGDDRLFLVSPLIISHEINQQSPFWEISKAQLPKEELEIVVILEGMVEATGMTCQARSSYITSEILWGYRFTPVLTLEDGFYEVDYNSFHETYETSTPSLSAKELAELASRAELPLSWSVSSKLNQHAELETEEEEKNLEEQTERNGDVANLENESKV
Calls only. This is a subset, so the mix of outcomes need not match the whole.

Screening Cc1ccc(S(=O)(=O)c2nc(SCC(=O)c3ccccc3)sc2N2CCOCC2)cc1 returned GIRK2 activ inactive.
`Cc1nc2c(c(=O)n1CC(=O)Nc1cccc(Cl)c1F)CCCC2` gave GIRK2 activ inactive.
CN(C)c1cc2c(Nc3ccc4c(cnn4Cc4ccccc4)c3)ncnc2cn1 was read as GIRK2 activ inactive.
For COc1ccc(CCNC(=O)NCCc2nc(C)cc(C(F)(F)F)n2)cc1 the results were GIRK2 activ inactive.
`COc1ccc(SCC2CCN(S(=O)(=O)c3ccc(Cl)s3)CC2)cc1` gave GIRK2 activ inactive.
Screening CCOc1ccccc1-c1noc(-c2nnn(-c3ccc(C)c(F)c3)c2C)n1 returned GIRK2 activ inactive.
For COc1ccc(CCNC(=O)CN2CC(c3nc(C4CC4)no3)C2)cc1OC the results were GIRK2 activ inactive.
COc1cc(C(C)(C)C)nc2c(-c3ccccc3Cl)c(C)nn12 was read as GIRK2 activ inactive.
For CC(C)c1ccc(NC(=O)Cn2nc3c(N4CCCC4)nccn3c2=O)cc1 the results were GIRK2 activ inactive.
Screening CCn1cnc2c(-c3ccccc3)cn(CC(=O)Nc3cccc(Cl)c3C)c2c1=O returned GIRK2 activ inactive.
O=C(c1nnn(-c2ccccc2F)c1-c1ccccn1)N1CC=C(c2ccccc2)CC1 was read as GIRK2 activ inactive.
For CN1C(=O)c2cc(NC(=O)NCc3cccs3)ccc2Oc2ccccc21 the results were GIRK2 activ inactive.
Cc1cc(O)c(C(c2cccc(O)c2)c2c(O)cc(C)n(CCO)c2=O)c(=O)n1CCO was read as GIRK2 activ inactive.
For COc1ccc2nc(CN3CCN(C(=O)C4CC4)CC3)[nH]c2c1 the results were GIRK2 activ inactive.
For COc1ccc(Cl)cc1NC(=O)c1csc2nc(-c3ccc(F)cc3)cn12 the results were GIRK2 activ inactive.
Screening COc1ccccc1C(=O)N1CCN(C2=NN=C(c3ccccc3)CS2)CC1 returned GIRK2 activ inactive.
For O=C(NCC1CCN(C(=O)Oc2ccccc2)CC1)c1cc(-c2ccccc2)on1 the results were GIRK2 activ inactive.
Cc1ccc(N2CCN(c3ccc(S(=O)(=O)C4CCCCC4)nn3)CC2)c(C)c1 was read as GIRK2 activ inactive.
Screening COc1cc(NC(C)CCCN)c2ncccc2c1 (centres undefined) returned GIRK2 activ inactive.
For COc1ccc(-c2c(C)oc3cc(OC(=O)N4CCOCC4)ccc3c2=O)cc1OC the results were GIRK2 activ inactive.
Screening CCOC(=O)N1CCN(C(=O)CSc2nnc(CCc3nc4ccccc4s3)o2)CC1 returned GIRK2 activ inactive.
Screening COc1ccc(C(=O)Nc2nnc(-c3ccccc3OC)o2)cc1OC returned GIRK2 activ inactive.
For CC(=O)c1cccc(NC(=O)CN2CCC(c3nc(-c4cccc(C)c4)no3)CC2)c1 the results were GIRK2 activ inactive.
O=C(/C=C/c1ccccc1)Oc1ccc2c(c1)O/C(=C\c1cccnc1)C2=O was read as GIRK2 activ inactive.
CC(C)c1nc2c(c(=O)c3ccccc3n2C)c(=O)n1Cc1ccccc1 was read as GIRK2 activ inactive.
`O=C(Nc1nc(-c2cccc3ccccc23)cs1)c1cc([N+](=O)[O-])ccc1Cl` gave GIRK2 activ inactive.
`O=C(CSc1ncnc2c1oc1ccccc12)NC1CCCC1` gave GIRK2 activ inactive.
For O=C(CSc1nnc(N2CCN(C(=O)c3ccccc3F)CC2)s1)NCc1ccco1 the results were GIRK2 activ inactive.
For Nc1nc(N2CCN(c3ccccc3F)CC2)ncc1[N+](=O)[O-] the results were GIRK2 activ inactive.
Screening Cn1cc(C(=O)N2CCC(Oc3cnccn3)CC2)nn1 returned GIRK2 activ inactive.
COc1ccc(Cl)cc1NC(=O)C(=O)NCC(O)(c1ccccc1)C(F)(F)F (centres undefined) was read as GIRK2 activ inactive.
`Cc1cc(C)n(-c2cc(N3CCN(S(=O)(=O)N(C)C)CC3)nc(C)n2)n1` gave GIRK2 activ inactive.
For COc1c(C)cnc(CN2N=C(c3ccccc3)c3ccccc3S2(=O)=O)c1C the results were GIRK2 activ inactive.
Screening COc1ccc(CC(C)(O)CNC(=O)c2ccccc2Br)cc1 (centres undefined) returned GIRK2 activ inactive.
For O=C(O)CC(CC(=O)NCC1CCN(S(=O)(=O)C2CC2)CC1)c1cccs1 (centres undefined) the results were GIRK2 activ inactive.
Screening Cc1nc2ccc3nc(NC(=O)CCS(=O)(=O)Cc4ccccc4)sc3c2s1 returned GIRK2 activ inactive.
For COc1ccccc1C(=O)N1CCC2(CC1)OCCS2 the results were GIRK2 activ inactive.
For COc1nn(C)cc1C(=O)NCC(=O)Nc1ccc2c(c1)Cc1ccccc1-2 the results were GIRK2 activ inactive.
`O=C(c1csc(-c2cc3ccccc3[nH]2)n1)N1CCCC(O)C1` (centres undefined) gave GIRK2 activ inactive.
COc1ccccc1OCC#CCNS(=O)(=O)Cc1ccccc1 was read as GIRK2 activ inactive.
Cc1cc(N2C(=O)CCS2(=O)=O)ccc1S(=O)(=O)N(C)CCc1ccncc1 was read as GIRK2 activ inactive.
`Cc1nc(Nc2ccccn2)cc(N2CCN(S(=O)(=O)c3cccc(C(F)(F)F)c3)CC2)n1` gave GIRK2 activ inactive.
Screening O=C(NCc1cc(-c2ccncc2)n(C2CCCC2)n1)NCc1cccs1 returned GIRK2 activ inactive.
Screening O=C(Cc1csc(Nc2ncccn2)n1)NCc1ccc(OCc2ccccc2)cc1 returned GIRK2 activ inactive.
`O=C(/C=C/c1ccccc1Cl)Nc1nnc(-c2ccsc2)o1` gave GIRK2 activ inactive.

Copied from the results shown for reference:
Screening Cn1cc(C(=O)N2CCC(Oc3cnccn3)CC2)nn1 returned GIRK2 activ inactive.
COc1ccc(Cl)cc1NC(=O)C(=O)NCC(O)(c1ccccc1)C(F)(F)F (centres undefined) was read as GIRK2 activ inactive.
`Cc1cc(C)n(-c2cc(N3CCN(S(=O)(=O)N(C)C)CC3)nc(C)n2)n1` gave GIRK2 activ inactive.
For COc1c(C)cnc(CN2N=C(c3ccccc3)c3ccccc3S2(=O)=O)c1C the results were GIRK2 activ inactive.
Screening COc1ccc(CC(C)(O)CNC(=O)c2ccccc2Br)cc1 (centres undefined) returned GIRK2 activ inactive.
For O=C(O)CC(CC(=O)NCC1CCN(S(=O)(=O)C2CC2)CC1)c1cccs1 (centres undefined) the results were GIRK2 activ inactive.
Screening Cc1nc2ccc3nc(NC(=O)CCS(=O)(=O)Cc4ccccc4)sc3c2s1 returned GIRK2 activ inactive.
For COc1ccccc1C(=O)N1CCC2(CC1)OCCS2 the results were GIRK2 activ inactive.
For COc1nn(C)cc1C(=O)NCC(=O)Nc1ccc2c(c1)Cc1ccccc1-2 the results were GIRK2 activ inactive.
`O=C(c1csc(-c2cc3ccccc3[nH]2)n1)N1CCCC(O)C1` (centres undefined) gave GIRK2 activ inactive.
COc1ccccc1OCC#CCNS(=O)(=O)Cc1ccccc1 was read as GIRK2 activ inactive.
Cc1cc(N2C(=O)CCS2(=O)=O)ccc1S(=O)(=O)N(C)CCc1ccncc1 was read as GIRK2 activ inactive.
`Cc1nc(Nc2ccccn2)cc(N2CCN(S(=O)(=O)c3cccc(C(F)(F)F)c3)CC2)n1` gave GIRK2 activ inactive.

Next section
Screening O=c1c(-c2ccc(Cl)cc2)coc2cc(OCCN3CCN(CCO)CC3)ccc12 returned GIRK2 activ inactive.
For CN(C)c1ccc(O)c2c1C[C@H]1C[C@H]3[C@H](N(C)C)C(=O)C(C(N)=O)=C(O)[C@@]3(O)C(=O)C1=C2O the results were GIRK2 activ inactive.
For COc1ccc(OC)c(S(=O)(=O)NCCN2CCN(c3ccc(F)cc3)CC2)c1 the results were GIRK2 activ inactive.
For CCOc1ccc(/C=C/C(=O)Nc2cc(C)cc(C)c2)cc1 the results were GIRK2 activ inactive.
`O=C(Nc1cc(N2CCOCC2)ncn1)C1CCCN(c2ccc(-c3ccccc3)nn2)C1` (centres undefined) gave GIRK2 activ inactive.
For COC(=O)CN1CCN(c2nc3c(c(=O)[nH]c(=O)n3C)n2Cc2ccc(F)cc2)CC1 the results were GIRK2 activ inactive.
Screening O=C(NCCn1nc(C2CC2)n(-c2ccccc2)c1=O)c1csc(-c2ccccc2)n1 returned GIRK2 activ inactive.
`Cc1ccc(-n2ncc3c(=O)n(CC(=O)N4CCOCC4)cnc32)c(C)c1` gave GIRK2 activ inactive.
For CC(C)c1cnc2c(c1SCC(=O)Nc1ccc(Br)cc1)c(=O)n(C)c(=O)n2C the results were GIRK2 activ inactive.
For N#CC(C(=O)OC1CCCCC1)c1nc2ccccc2nc1N1CCCC1 (centres undefined) the results were GIRK2 activ inactive.
`COc1cccc(CNC(=O)c2ccc(Oc3nccnc3N3CCCCC3)cc2)c1` gave GIRK2 activ inactive.
`Cc1ccc(CNC(=O)Cc2nc(C)c(C(=O)NCc3ccccc3)s2)cc1C` gave GIRK2 activ inactive.
`Cn1nc(N2CCC(C(=O)Nc3cc4ccccc4oc3=O)CC2)ccc1=O` gave GIRK2 activ inactive.
`O=C(NCCOc1ccc(-c2ccccc2)nn1)c1cccc(-n2cnnn2)c1` gave GIRK2 activ inactive.
Screening COc1cc(-c2noc(Cn3c(=O)[nH]c4cc5c(cc4c3=O)OCO5)n2)ccc1OC(C)C returned GIRK2 activ inactive.
CCOc1ccc(/C=C2\Oc3cc(OS(C)(=O)=O)ccc3C2=O)cc1 was read as GIRK2 activ inactive.
Screening Cc1cccn2c(=O)c3cc(C(=O)N4CCC(C)CC4)n(Cc4ccccc4)c3nc12 returned GIRK2 activ inactive.
For CCCCCc1c(CC=C(C)C)c(OC)c(CC=C(C)C)c(O)c1C(=O)O the results were GIRK2 activ inactive.
NC(=O)C1CCN(C(=O)CCc2nnc3c(N4CCCCC4)nc4ccccc4n23)CC1 was read as GIRK2 activ inactive.
`COCCCNc1ncc(C(=O)O)c(-c2ccccc2)n1` gave GIRK2 activ inactive.
For Cc1cccc(C)c1NC(=O)C(=O)NCCc1ccc2c(c1)CCCN2C the results were GIRK2 activ inactive.
Screening CCOc1ccc(C2NC(=O)NC(CS(=O)(=O)c3cccc(Cl)c3)=C2C(=O)OC)cc1 (centres undefined) returned GIRK2 activ inactive.
Cc1cc(C(=O)N2CCN(CCNC(=O)Cc3ccc(-c4ccccc4)cc3)CC2)no1 was read as GIRK2 activ inactive.
Screening CCC(=O)Nc1ccc2c(c1)c(=O)n(-c1ccccc1)n2CC(=O)Nc1ccc(C)c(C)c1 returned GIRK2 activ inactive.
`O=C(c1cnn(-c2ccccc2)n1)N1CCCC(c2nnc(-c3cccs3)o2)C1` (centres undefined) gave GIRK2 activ inactive.
CC(C)(C)C(=O)N1CCc2cc(NC(=O)C3CC3)ccc21 was read as GIRK2 activ inactive.
CCn1c(-c2nonc2N)nc2c(C#CC(C)(C)O)nc(OCCNC)cc21 was read as GIRK2 activ inactive.
For O=C(Nc1nc(C(=O)N2CCC3(CC2)OCCO3)co1)c1ccccc1 the results were GIRK2 activ inactive.
O=C(C1CCN(c2nc3ccccc3[nH]c2=O)CC1)N1CC=C(c2ccccc2)CC1 was read as GIRK2 activ inactive.
`COCC(=O)N1CCC(CSC2=NCCS2)CC1` gave GIRK2 activ inactive.
O=C(CNS(=O)(=O)c1c(Cl)cccc1Cl)N1CCCCCC1 was read as GIRK2 activ inactive.
`CC(=O)N1CCc2c(sc(NC(=O)CSc3ccccc3)c2-c2nc3ccccc3s2)C1` gave GIRK2 activ inactive.
Screening Cc1nc2ccc(NC(=O)CCS(=O)(=O)Cc3ccccc3)cc2s1 returned GIRK2 activ inactive.
CC(Cc1ccco1)NC(=O)Cn1cnc2c1c(=O)n(C)c(=O)n2C (centres undefined) was read as GIRK2 activ inactive.
For CCOc1ccc2nc(NC(=O)CCC3NC(=O)c4ccccc4NC3=O)sc2c1 (centres undefined) the results were GIRK2 activ inactive.
Screening COC(=O)N1c2ccccc2C23[C@@H]4CN5CCCC6(CCC12[C@@H](O)[C@@H]6C4=O)[C@H]53 returned GIRK2 activ inactive.
COc1cccc2c1OC1(C)CC2NC(=S)N1CCc1ccccc1 (centres undefined) was read as GIRK2 activ inactive.
For O=C(Cc1csc(SCC(=O)Nc2ccc(F)cc2)n1)NCc1nc2ccccc2[nH]1 the results were GIRK2 activ inactive.
Screening CC(=O)N1CCN(S(=O)(=O)c2cccc(C(=O)Nc3nccs3)c2)CC1 returned GIRK2 activ inactive.
For CCOc1ccc(CC(=O)Nc2nc(CN3CCc4ccccc4C3)cs2)cc1 the results were GIRK2 activ inactive.
COc1ccc(-c2cc3nc(C)cc(N4CCOCC4)n3n2)cc1OC was read as GIRK2 activ inactive.
Screening CC(C)c1ccc(NC(=O)C(=O)NCC2(CO)CC2)cc1 returned GIRK2 activ inactive.
`CCn1c(SCC(C)O)nc2c1c(=O)n(C)c(=O)n2C` (centres undefined) gave GIRK2 activ inactive.
`N#Cc1ccc(C(=O)N(CCN2CCOCC2)c2nc3ccc(Br)cc3s2)cc1` gave GIRK2 activ inactive.
Screening CC(C)N1CCc2c(sc(NC(=O)CN3C(=O)CCC3=O)c2-c2nc3ccccc3s2)C1 returned GIRK2 activ inactive.
`CN(C)C(CNC(=O)C(=O)Nc1cc2c3c(c1)CC(=O)N3CCC2)c1ccc2c(c1)CCO2` (centres undefined) gave GIRK2 activ inactive.
`O=C(NCCc1cccs1)C1CCN(c2nc3ccccc3[nH]c2=O)CC1` gave GIRK2 activ inactive.
COCCn1cnc2c(-c3ccccc3)cn(CC(=O)Nc3ccc(C)c(C)c3)c2c1=O was read as GIRK2 activ inactive.
COc1cccc(/C=C/c2nc(C#N)c(N3CCN(C(=O)c4cccc(OC)c4)CC3)o2)c1 was read as GIRK2 activ inactive.
Screening Cc1ccc(-c2cc3c(=O)n(CC(=O)NC4CCCC4)ccn3n2)cc1 returned GIRK2 activ inactive.
`CC1CCN(c2nccnc2Oc2ccc(C(=O)NCc3ccco3)cc2)CC1` gave GIRK2 activ inactive.
`COCCNc1cc(C)nc2c(-c3ccccc3)c(C)nn12` gave GIRK2 activ inactive.
Screening CCc1cc(CC)n(-c2nc3c(c(=O)n(CC(C)C)c(=O)n3C)n2CCOC)n1 returned GIRK2 activ inactive.
Screening CC(C)(C)C(O)CCNC(=O)CSC1CCCC1 (centres undefined) returned GIRK2 activ inactive.
O=C(Nc1nc(C(=O)NCc2nc3ccccc3[nH]2)co1)c1ccccc1 was read as GIRK2 activ inactive.
COc1ccccc1OCC(=O)Nc1cc(C)nn1-c1nc2ccccc2s1 was read as GIRK2 activ inactive.
